# A1 inhib: A1 inhibition | AID 2241 | caspase activation, % (concentration not given with the values) | MEF A1-2A-BIM cells, caspase-Glo luminescence, 3 h; percent of clofoctol signal, DMSO as zero | 21,000 compounds, 0.51% hits;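 active = most replicate scores above 10, or exactly half above 10 with mean activity above 10; inconclusive = mean activity below 10 while half the replicates exceed 10; inactive = most replicate scores below 10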;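 note: effector caspase 3 and 7 activity cleaving a DEVD luciferin substrate; 50 nL library stock added to about 30 µL; numbers are from one replicate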
# BJeLR viability: BJeLR cell viability reduction; BJeLR fibroblasts viability, CellTiterGlo ATP luminescence, 48 h; HRASV12, hTERT and SV40 LT/ST transformed; viability loss activity score, % (test concentration not listed); 30,000 compounds, 0.64% hits; in the data active = viability loss activity score above about 50%; inconclusive = no clear call, values can overlap the other calls; inactive = below about 35%; about a fifth of its hits are not listed in these tables;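 note: higher score means fewer live cells and less ATP luminescence; stock transfer was 50 or 100 nL into about 30 µL; 0% = vehicle wells and 100% = a reference killing control; one replicate is shown; the record names a cut of 85%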
# * hit, by the source's call; u = inconclusive; x = not tested or not shown. Not all compounds are listed; count on the stated rates, not on these rows.
SMILES,A1 inhib,BJeLR viability
CN(C)CC[C@H](c1ccc(Cl)cc1)c1ccccn1,0.5,3.2
Cc1cc(C(=O)Nc2cccc(Cl)c2)on1,x,-1.0
Cc1cc(C(=O)Nc2cccc3c2O[C@H](CN(C)C(=O)Nc2ccc(C(F)(F)F)cc2)[C@@H](C)CN([C@H](C)CO)C3=O)n(C)n1,x,4.1
O=C(NCCc1ccccc1)C1CCCN(c2ncnc3c2sc2cccc(F)c23)C1 (stereo not given),0.5,-2.1
CCCn1nc(NC(=O)c2cccc(Cl)c2)c2cc3cc(C)ccc3nc21,12.2*,-6.7
C[C@H]1CN([C@@H](C)CO)C(=O)c2cc(NC(=O)Nc3cccc4ccccc34)ccc2O[C@H]1CN(C)S(=O)(=O)c1ccccc1,-0.1,2.8
O=C(NCc1cccs1)c1cc(-c2ccccc2)nc2ccccc12,-0.2,-0.4
COc1ccc(C(=O)Nc2ccc3[nH]ccc3c2)cc1,-7.1,29.5
O=C(O)C1CSC(c2ccccc2)N1 (stereo not given),-0.5,-2.9
N#Cc1nc(-c2ccccc2F)oc1NCC1CCCO1 (stereo not given),-0.5,-1.8
CSc1ccccc1NC(=O)c1cc2n(n1)C(C(F)(F)F)C1CCc3ccccc3C1N2 (stereo not given),-1.0,-2.0
C[C@@H]1CN([C@H](C)CO)C(=O)c2cccc(NS(C)(=O)=O)c2O[C@H]1CN(C)C(=O)NC1CCCCC1,x,0.9
C[C@@H]1CN([C@@H](C)CO)C(=O)c2cccc(NC(=O)Nc3ccc(C(F)(F)F)cc3)c2O[C@@H]1CN(C)C(=O)Nc1ccc(C(F)(F)F)cc1,x,-5.0
COc1ccc(NC(=O)Nc2cccc3c2O[C@H](CN(C)S(=O)(=O)c2cccs2)[C@H](C)CN([C@@H](C)CO)C3=O)cc1,x,1.5
C[C@@H]1CN([C@H](C)CO)C(=O)c2cccc(NC(=O)Nc3cccc4ccccc34)c2O[C@@H]1CN(C)Cc1ccc(Cl)c(Cl)c1,x,5.3
CNC[C@@H]1Oc2ccc(NC(=O)Nc3c(C)noc3C)cc2C(=O)N([C@@H](C)CO)C[C@H]1C,-0.7,5.3
C[C@H]1CN([C@@H](C)CO)C(=O)c2cc(NS(=O)(=O)c3ccccc3)ccc2O[C@H]1CN(C)C(=O)Nc1ccc2c(c1)OCO2,0.3,9.8
C[C@H]1CN([C@@H](C)CO)C(=O)c2cccc(NC(=O)NC3CCCCC3)c2O[C@@H]1CN(C)C(=O)Nc1ccccc1,x,-0.2
CC(C)(C)NC(=O)Nc1ccc2ccccc2c1,-2.8,-1.4
CC(C)NC(=O)N(C)C[C@H]1Oc2c(NS(=O)(=O)c3ccc(Cl)cc3)cccc2C(=O)N([C@@H](C)CO)C[C@@H]1C,x,-3.0
C[C@H]1CN([C@@H](C)CO)C(=O)c2cccc(NS(=O)(=O)c3cn(C)cn3)c2O[C@H]1CN(C)CC1CC1,x,-0.1
COc1ccc(NC(=O)Nc2ccc3c(c2)C(=O)N([C@H](C)CO)C[C@@H](C)[C@H](CN(C)C(=O)NC(C)C)O3)cc1,-1.2,3.6
Cc1c(C(=O)N2CCc3ccccc32)oc2c1C(=O)CC(C)(C)C2,-0.3,5.4
COC(=O)c1[nH]nc2c1C(=O)N(c1ccc(F)cc1)C2=O,x,3.6
O=C(OCC(O)CO)c1ccccc1Nc1ccnc2cc(Cl)ccc12 (stereo not given),-0.2,-3.6

# Three compounds from above, ordered by the number in A1 inhib, largest number first:
structure	A1 inhib
CCCn1nc(NC(=O)c2cccc(Cl)c2)c2cc3cc(C)ccc3nc21	12.2*
Cc1c(C(=O)N2CCc3ccccc32)oc2c1C(=O)CC(C)(C)C2	-0.3
CC(C)(C)NC(=O)Nc1ccc2ccccc2c1	-2.8

# Arranged by heavy-atom count (descending): three of the compounds above.
SMILES,A1 inhib,BJeLR viability
C[C@@H]1CN([C@H](C)CO)C(=O)c2cccc(NC(=O)Nc3cccc4ccccc34)c2O[C@@H]1CN(C)Cc1ccc(Cl)c(Cl)c1,x,5.3
CSc1ccccc1NC(=O)c1cc2n(n1)C(C(F)(F)F)C1CCc3ccccc3C1N2 (stereo not given),-1.0,-2.0
COC(=O)c1[nH]nc2c1C(=O)N(c1ccc(F)cc1)C2=O,x,3.6

# (next part)
SMILES,A1 inhib,BJeLR viability
C[C@H]1CN([C@@H](C)CO)C(=O)c2cc(NC(=O)CCCN(C)C)ccc2O[C@@H]1CN(C)Cc1ccncc1,0.5,-1.0
CCc1cccc(NC(=O)C(NC(=O)C2CCC(C)CC2)C(C)C)c1 (stereo not given),x,3.8
CC(=O)Nc1cc2ccc(OC(C)=O)cc2oc1=O,-2.0,-2.2
C[C@@H]1CN([C@@H](C)CO)C(=O)c2cccc(NC(=O)Nc3ccccc3)c2O[C@H]1CN(C)CC1CCCCC1,x,-0.2
C[C@@H]1CN([C@@H](C)CO)C(=O)c2cc(NC(=O)Nc3ccc(F)cc3)ccc2O[C@H]1CN(C)C(=O)Nc1ccc2c(c1)OCO2,-0.9,-4.2
C[C@@H]1CN([C@@H](C)CO)C(=O)c2cc(NC(=O)c3ccncc3)ccc2O[C@@H]1CN(C)Cc1ccc(-c2ccccc2)cc1,-0.7,-0.6
Cc1ccc(Nc2cc(=O)[nH]n2C)cc1Cl,-0.1,0.2
CN(C(=O)c1ccccc1)c1ccc(OCC(=O)NC2CCS(=O)(=O)C2)cc1 (stereo not given),0.8,0.2
CNC[C@@H]1Oc2c(NS(=O)(=O)c3ccc(F)cc3)cccc2C(=O)N([C@@H](C)CO)C[C@H]1C,x,3.6
Cc1ncoc1C(=O)NCc1ccc(Cl)cc1,-1.0,3.7
Cc1nn(-c2ccccc2)c(Cl)c1C1N(Cc2ccccc2)CCN1Cc1ccccc1,-0.1,-0.7
CCOC(=O)/C=C1\CCCCCN1,x,-6.8
CC(C)NC(=O)Nc1ccc2c(c1)C(=O)N([C@@H](C)CO)C[C@H](C)[C@H](CN(C)CC1CCCCC1)O2,-0.1,1.2
Cc1sc(/N=C/c2cn(Cc3ccccc3)c3ccccc23)c(C#N)c1C,-1.1,6.3
C[C@@H]1CN([C@H](C)CO)C(=O)c2cc(NS(C)(=O)=O)ccc2O[C@H]1CN(C)Cc1ccncc1,0.2,4.3
Cc1ccc(/C=N/n2nnnc2N)s1,0.1,-0.8
CCC(Sc1nnc(C)n2c1cc1oc(C)cc12)C(=O)Nc1cccc(OC)c1 (stereo not given),-0.8,-4.4
O=C(NCc1ccccn1)c1cc(-c2cccnc2)nc2ccccc12,0.5,1.9
COc1ccc(-c2coc3c(OC)c(OC)ccc3c2=O)cc1,-1.3,-1.2
Cc1ccc(SCCC(=O)N2CCN(c3ncc(C(F)(F)F)cc3Cl)CC2)cc1,-0.7,-2.1
C[C@@H]1CN([C@@H](C)CO)C(=O)c2cc(NC(=O)Cc3ccccc3)ccc2O[C@H]1CN(C)S(=O)(=O)c1ccc(Cl)cc1,1.8,-0.7
CCOC(=O)c1cnc2c(-c3ccccc3)cnn2c1C,-4.8,3.0
Cc1ccc(S(=O)(=O)Nc2cccc3c2O[C@@H](CN(C)Cc2ccc(C(=O)O)cc2)[C@H](C)CN([C@H](C)CO)C3=O)cc1,x,-2.3
CNC[C@H]1Oc2ccc(NS(=O)(=O)c3c(C)noc3C)cc2C(=O)N([C@@H](C)CO)C[C@@H]1C,0.4,-1.7
CCOc1ccc(Cc2nc(C)c(CC(=O)N3CCOCC3)c(=O)[nH]2)cc1,x,6.2
# Carrying on.
SMILES,A1 inhib,BJeLR viability
C=CS(=O)(=O)c1ccc(OC)c(N)c1,-1.6,4.1
C=C1C2CCC3[C@]4(C)CCC[C@@](C)(C(=O)O)C4CC[C@]3(C2)C1OC(C)=O (stereo not given in full),0.5,-1.3
OC(CNC1Cc2ccccc2C1)COc1ccc(F)cc1 (stereo not given),x,-3.8
Cc1noc(C)c1S(=O)(=O)Nc1ccc2c(c1)C(=O)N([C@@H](C)CO)C[C@H](C)[C@@H](CN(C)S(=O)(=O)c1cn(C)cn1)O2,-0.1,2.9
Cc1ccc(Oc2coc3cc(OCC(=O)N4CCCCC4)ccc3c2=O)cc1,1.7,6.8
CC(C)NCC(O)COc1ccc(CCOCC2CC2)cc1 (stereo not given),0.3,-5.1
COc1ccc(S(=O)(=O)N(C)C[C@H]2Oc3c(NC(=O)c4ccncc4)cccc3C(=O)N([C@@H](C)CO)C[C@H]2C)cc1,x,1.9
Cc1ccc(S(=O)(=O)Nc2ccc3c(c2)C(=O)N([C@H](C)CO)C[C@@H](C)[C@@H](CN(C)S(=O)(=O)c2ccc(Cl)cc2)O3)cc1,-0.3,-7.3
CC(C)(C)OC(=O)N1CCC(CNS(=O)(=O)c2cccc(C(F)(F)F)c2)CC1,x,3.9
Cn1c(NC(=O)c2ccccc2NC(=O)c2ccccc2)nc2ccccc21,x,u
N/C(=N/O)c1ccccc1N,0.8,3.0
Cc1cc(Nc2ccccc2)nc(Nc2ccccc2)n1,-1.1,11.9
C[C@@H]1CN([C@H](C)CO)C(=O)c2cc(NC(=O)C3CCCCC3)ccc2O[C@@H]1CN(C)CC1CCCCC1,0.3,2.9
CC(Oc1ccccc1)C(=O)O (stereo not given),0.1,-4.5
COc1ccc(NC(=O)Nc2ccc3c(c2)C(=O)N([C@@H](C)CO)C[C@@H](C)[C@@H](CN(C)Cc2ccc(C(=O)O)cc2)O3)cc1,0.5,-0.7
Nc1c2c(nc3ccccc13)CCCC2,-1.3,5.0
C[C@H]1CN([C@@H](C)CO)C(=O)c2cc(NC(=O)Nc3cccc4ccccc34)ccc2O[C@@H]1CN(C)C(=O)Nc1ccccc1,0.6,-4.5
Cc1cc(C)c(NC(=O)CCNC2CCCCC2)c(C)c1,-0.7,-1.3
C[C@@H]1CN([C@H](C)CO)C(=O)c2cccc(NC(=O)NC3CCCCC3)c2O[C@@H]1CN(C)Cc1ccccc1,x,5.5
COc1ccc(CNC2C3CC4CC(C3)CC2C4)c(OC)c1C (stereo not given),0.1,11.3
N#CCNC(=O)c1ccc(Br)cc1,-0.9,0.8
COc1ccc2c(c1)OCC(Cc1ccc(OC)c(OC)c1)C2=O (stereo not given),-0.2,12.7
COc1ccc(CN(C)C[C@@H]2Oc3ccc(NS(=O)(=O)c4ccc(F)cc4)cc3C(=O)N([C@H](C)CO)C[C@@H]2C)cc1,0.2,-2.5
COc1ccc(NC(=O)Nc2ccc3c(c2)C(=O)N([C@@H](C)CO)C[C@@H](C)[C@@H](CN(C)Cc2ccccc2)O3)cc1,0.4,0.4
Cn1c(=O)c2c(n(C)c1=O)n(C)c(=O)n2C,-0.6,1.4
# (next part)
SMILES,A1 inhib,BJeLR viability
C[C@H]1CN([C@@H](C)CO)C(=O)c2cc(NS(=O)(=O)c3cccs3)ccc2O[C@H]1CN(C)S(=O)(=O)c1cccs1,0.7,-2.4
O=C(NCc1cccs1)c1csc(Cc2c(Cl)cccc2Cl)n1,0.6,-6.1
CN1CCN(C2=Nc3cc(F)ccc3Cc3ccccc32)CC1,0.0,6.5
COc1ccc2ncc3c(c2c1)-c1cc(Cl)ccc1OC3,-4.1,7.2
COc1ccc(-n2c(=O)c(C#N)cc3c(=O)n4ccccc4nc32)cc1Cl,-1.1,-2.8
COc1ccc(S(=O)(=O)N(C)C[C@H]2Oc3ccc(NC(=O)C4CCCCC4)cc3C(=O)N([C@@H](C)CO)C[C@@H]2C)cc1,0.2,-2.0
C[C@@H]1CN([C@H](C)CO)C(=O)c2cc(NC(=O)CCCCCC(=O)Nc3ccccc3N)ccc2O[C@@H]1CN(C)Cc1ccncc1,x,-0.1
COc1ccc(CN(C)C[C@@H]2Oc3ccc(NS(=O)(=O)c4ccccc4)cc3C(=O)N([C@@H](C)CO)C[C@@H]2C)cc1,-0.5,-5.1
COC(=O)C1=C(C)NC(C)=C(C(=O)OC)C1c1ccc(C(C)C)cc1,-0.3,1.6
COc1ccc(CN(C)C[C@@H]2Oc3c(NC(=O)Nc4c(C)noc4C)cccc3C(=O)N([C@H](C)CO)C[C@@H]2C)cc1,x,1.5
C[C@H]1CN([C@@H](C)CO)C(=O)c2cc(N(C)C)ccc2O[C@@H]1CN(C)Cc1ccncc1,-1.0,3.1
CCC(=O)Nc1cc(-c2nc3cccnc3s2)ccc1C,-0.2,-1.2
COc1ccc(N=C2CCCN2CC(N)=O)cc1,0.3,2.4
O=C(c1ccc(N2CCOCC2)nc1)N1CCCCCC1,0.7,0.3
O=c1oc(-c2cccc(Cl)c2)nc2c1cnn2-c1ccccc1,-1.5,-6.6
Cc1n[nH]c(C)c1Sc1nccc(-c2cccnc2)n1,-0.3,14.0
O=c1[nH]c(SCc2ccc(C(F)(F)F)cc2)nc2c1cnn2-c1ccccc1,x,-2.1
N#CCSc1nc2ccccc2c(=O)n1CCCC(=O)NCc1ccco1,-0.7,-4.5
C[C@@H]1CN([C@@H](C)CO)C(=O)c2cc(NC(=O)Cn3cnnn3)ccc2O[C@@H]1CN(C)Cc1ccc(C(=O)O)cc1,0.3,-5.9
CCSc1nc2sc3c(c2c(=O)n1CCc1ccccc1)CCC3,x,0.5
COc1cccc(Cl)c1NC(=O)N1CCN(c2cc(C)nc3ccccc23)CC1,x,9.9
Cc1noc(C)c1S(=O)(=O)Nc1ccc2c(c1)C(=O)N([C@H](C)CO)C[C@@H](C)[C@H](CN(C)Cc1ccccc1)O2,-0.5,1.1
COc1ccc(S(=O)(=O)N(C)C[C@@H]2Oc3ccc(NC(=O)CCN4CCOCC4)cc3C(=O)N([C@H](C)CO)C[C@H]2C)cc1,-0.4,-0.3

# Another view of 2 compounds above.
molecule	A1 inhib	BJeLR viability
Cc1cc(C(=O)Nc2cccc(Cl)c2)on1	x	-1.0
Cc1cc(C(=O)Nc2cccc3c2O[C@H](CN(C)C(=O)Nc2ccc(C(F)(F)F)cc2)[C@@H](C)CN([C@H](C)CO)C3=O)n(C)n1	x	4.1
